KCNQ2 pot = KCNQ2 (rat) channel potentiation | 310,000 compounds, 0.54% hits | CHO-K1 KCNQ2, FluxOR thallium flux fluorescence; hits give high values | B-score at 10 µM | O88943;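 active means fluorescence ratio B-score at least 3 SD of library B-scores, with initial fluorescence B-score within 3 SD, cut at about 5.3 in these data; same plate scores as AID 2156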;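 further: B-score of peak minus minimum over baseline fluorescence ratio after K+ and Tl+ stimulus; positive B-score means potentiation of KCNQ2 with more thallium influx and brighter signal; only the inactives scoring about 0 or higher are listed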
Target sequence (O88943 whole entry, looked up): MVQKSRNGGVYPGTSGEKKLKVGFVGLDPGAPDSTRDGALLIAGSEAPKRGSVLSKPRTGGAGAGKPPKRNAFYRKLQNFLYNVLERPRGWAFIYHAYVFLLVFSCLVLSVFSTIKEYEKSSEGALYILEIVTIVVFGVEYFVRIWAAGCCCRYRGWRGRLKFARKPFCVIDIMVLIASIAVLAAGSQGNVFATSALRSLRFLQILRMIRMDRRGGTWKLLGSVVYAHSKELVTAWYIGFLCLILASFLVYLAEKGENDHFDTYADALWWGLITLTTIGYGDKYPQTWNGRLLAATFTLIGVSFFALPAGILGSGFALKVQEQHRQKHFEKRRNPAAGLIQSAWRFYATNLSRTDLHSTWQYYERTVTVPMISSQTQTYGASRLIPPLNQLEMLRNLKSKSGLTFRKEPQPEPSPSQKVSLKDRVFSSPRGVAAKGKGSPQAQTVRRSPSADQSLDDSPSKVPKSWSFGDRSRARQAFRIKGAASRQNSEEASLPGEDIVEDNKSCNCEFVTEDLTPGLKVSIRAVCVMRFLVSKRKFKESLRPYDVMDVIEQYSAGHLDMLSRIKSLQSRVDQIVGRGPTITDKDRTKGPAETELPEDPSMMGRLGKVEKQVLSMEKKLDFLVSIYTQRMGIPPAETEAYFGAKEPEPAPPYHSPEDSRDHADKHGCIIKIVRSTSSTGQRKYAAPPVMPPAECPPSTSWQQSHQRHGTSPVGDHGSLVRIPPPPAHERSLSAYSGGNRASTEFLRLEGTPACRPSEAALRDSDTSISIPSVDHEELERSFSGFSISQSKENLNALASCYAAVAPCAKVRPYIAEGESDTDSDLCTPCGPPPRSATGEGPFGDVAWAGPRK
KCNQ2 pot baseline = also measured in KCNQ2 pot; calls as there; B-score; compound at 10 µM; measured here: initial fluorescence intensity artifact check;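 brightness before thallium and not channel activity; 0 = typical well and far values either way flag optical interference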
Starred values were filed as active, the others as inactive. Not all compounds are listed; the hit share may differ from the screen's.

SMILES | KCNQ2 pot | KCNQ2 pot baseline
COc1ccc(CC2CCOC2=O)cc1 (centres undefined) | 0.82 | -2.8
O=C(O)c1ccc(CNC(=O)C23CC4CC(CC(C4)C2)C3)cc1 | 0.79 | 0.91
O=C(NCc1cccs1)C1CCC(=O)N1C1CCCCC1 (centres undefined) | 0.96 | -2.2
COc1ccc(C(=O)NN/C(C)=C/C(=O)c2ccccc2)cc1 | 0.97 | -0.57
Cc1nnc(NC(=O)CC(CN(C)S(=O)(=O)c2ccccc2)c2ccccc2)s1 (centres undefined) | 0.39 | -1.1
Cc1cc(=O)oc2c(CN3CCCC3)c(O)ccc12 | 2.1 | -0.48
O=c1[nH]c(=O)n(Cc2ccccc2)c2nc(-c3ccc(C(F)(F)F)cc3)n(CCO)c12 | 0.23 | -2.2
COc1ccc(/C=N/NC(=S)NC2CCS(=O)(=O)C2)cc1 (centres undefined) | 0.02 | 0.71
CN(C(=O)COC(=O)c1c[nH]c(=O)[nH]c1=O)C1CCCCC1 | 0.31 | -0.3
CCCSc1nc2cc(C)c(C)cc2n1CC(O)CO (centres undefined) | 1.6 | -1.1
CC(C)(NC(=O)NC(CO)c1ccccc1)c1cccc(C(C)(C)NC(=O)NC(CO)c2ccccc2)c1 (centres undefined) | 1.5 | 0.1
Cc1sc2ncnc(NCC(c3ccco3)N(C)C)c2c1C (centres undefined) | 0.54 | -1.6
CCC(Sc1nncn1C)C(=O)Nc1nnc(-c2ccccc2Cl)s1 (centres undefined) | 1.1 | 0.17
CC(OC(=O)[C@H](C)NC(=O)c1ccccc1Cl)C(=O)NCc1ccc2c(c1)OCO2 (some centres undefined) | 0.61 | 0.08
Cc1cc(=O)[nH]c(SCc2nnnn2-c2ccc(Cl)cc2)n1 | 0.28 | -1.1
Nc1nc(-c2cccnc2)nn1C(=O)c1ccccc1Cl | 0.82 | -0.23
COc1cc(/C=N/NC(=O)COc2c(C)cc([N+](=O)[O-])cc2C)ccc1OC(=O)c1ccccc1 | 0.9 | -0.2
COCC(C)n1c(SCC(=O)NNC(=O)c2ccccc2)nc2ccccc2c1=O (centres undefined) | 0.52 | -1.8
Cc1cc(C(F)(F)F)nc(SCCN2CCCCC2)c1C#N | 0.53 | 0
CC(NC(=O)c1cnc2n(c1=O)CCS2)c1ccccc1 (centres undefined) | 0.38 | 0.23
Cc1cc(N2CCCCC2)ccc1[N+](=O)[O-] | 2.5 | -1.4
CCC(C)Sc1ccc([C@H]2N[C@@](Cc3ccccc3)(C(=O)OC)[C@H]3C(=O)N(CC)C(=O)[C@@H]23)cc1OC (some centres undefined) | 1.8 | 1.6
O=C(CSc1ccsc1[N+](=O)[O-])Nc1cccc(F)c1 | 0.43 | 0.76
COc1ccc(CCNC(=O)CSc2nnc3ccccn23)cc1 | 1.3 | 0.67
O=C(NCCN1CCOCC1)Nc1cccc(Cl)c1 | 0.87 | 1.2
O=C(COC(=O)COc1cccc(Br)c1)Nc1c(Cl)cccc1Cl | 0.68 | -1.9
O=C(c1c(F)cccc1F)N1CCC(O)(c2cccnc2)CC1 | 0.2 | 0.37
Cc1ccc(S(=O)(=O)NNC(=O)Nc2ccc(C)c(C)c2)c(C)c1 | 0.46 | -0.68
CN(CCc1cn[nH]c1)C(=O)CC1C(=O)NCCN1Cc1cccc(Oc2ccccc2)c1 (centres undefined) | 0.74 | -1.7
Cc1ccc(NC(=S)N2CCC(N(C)CC3CCCO3)CC2)cc1 (centres undefined) | 0.71 | 1.1
CCn1cc(Cl)c(C(=O)N2N=C(c3ccc4ccccc4c3)CC2c2ccccc2O)n1 (centres undefined) | 0.62 | 0.81
C=CCn1c(O)c(CN2CCCCC2)c(C)c(C#N)c1=O | 0.79 | 1.8
O=C(Nc1cccc(C(=O)O)c1)/C(=C\c1ccccc1)NC(=O)c1cccc2ccccc12 | 1.2 | 0.11
COc1cc(-c2c(C#N)c(N)nc3c2CCCC3)ccc1O | 0.03 | -0.58
Cc1ccc(S(=O)(=O)c2cc3ccccc3nc2N)cc1 | 1.4 | -0.72
COc1ccc(C(=O)NC(=S)Nc2ccc(CN3CCOCC3)cc2)cc1Br | 1.1 | 0.68
O=C(Cn1cc(C(F)(F)F)cc(Cl)c1=O)Nc1ccc(N2CCOCC2)cc1 | 2.2 | 0.63
CN(Cc1c(C(=O)N/N=C/c2cc(F)ccc2F)nnn1-c1nonc1N)C1CCCCC1 | 2.5 | -0.07
Clc1cncc(Cl)c1NNc1c2ccccc2nc2ccccc12 | 1.4 | -0.15
CCOC(=O)c1ccc(NC(=S)N(CCN2CCCCCC2)Cc2cccs2)cc1 | 0.37 | 0.02
O=C(Nc1ccc(-c2csnn2)cc1)C(Cl)(Cl)Cl | 0.24 | 1.1
CCc1nnc2n1N=C(c1ccc([N+](=O)[O-])cc1)CS2 | 0.13 | -0.75
O=C(NCCCCc1ccccc1)C1CC(c2cc(C(F)(F)F)cc(C(F)(F)F)c2)=NO1 (centres undefined) | 1.8 | 0
Cc1ccc2[nH]c(C(=O)N/N=C/c3ccccc3C(=O)O)c(-c3ccccc3)c2c1 | 0.71 | -0.04
O=C(Nc1nnc(-c2ccncc2)o1)c1cccc(N2C(=O)CCC2=O)c1 | 1.1 | -3.1
Cc1cc(C(F)(F)F)n(-c2nc(C(=O)NN)cs2)n1 | 0.89 | -2
O=C(CN(c1ccc(F)cc1)S(=O)(=O)c1ccc2c(c1)OCCO2)NCC1CCCO1 (centres undefined) | 1 | 1.3
Cc1cc(NC(=O)CSc2nc3ccc(Cl)cc3[nH]2)no1 | 0.17 | -1.2
CCc1ccc2nc(N=C(N)N)nc(C)c2c1 | 1.7 | 0.17
Cc1cc(C)c(-n2c(O)c(C=NCCN3CCOCC3)c(=O)[nH]c2=O)c(C)c1 | 0.12 | 0.68
CCCCCCCCCS(=O)(=O)Nc1cc(C)ccn1 | 1.4 | -0.18
COc1ccc(NC(=O)CSc2nnc(CNC(=O)COc3ccc(Cl)cc3)o2)c(OC)c1 | 1 | -0.01
O=c1ccc2cc(S(=O)(=O)Nc3ccc(F)cc3)ccc2o1 | 1.8 | 2.5
CC(=O)c1ccc(OCC(O)CN2CCN(c3ccccn3)CC2)cc1 (centres undefined) | 0.22 | -0.59
O=C(Nc1ccc(N2CCOCC2)cc1)c1cnsn1 | 0.01 | -0.67
CC(/C=N/NC(=O)CSc1nc(C)cc(C)n1)=C\c1ccccc1 | 0.31 | 1.9
COC(=O)c1cnc(N2CCOCC2)nc1C(F)(F)F | 0.7 | -0.12
CC(=O)N=c1sccn1CC(O)c1ccccc1 (centres undefined) | 0.01 | -0.01
Cc1ccc(S(=O)(=O)N(C)c2ccc(C)c([N+](=O)[O-])c2)cc1 | 0.21 | 0.76
CC1CCN(C(=O)Cn2c(SCC(=O)Nc3nccs3)nc3ccccc32)CC1 | 0.35 | 0.87

Next part.
SMILES | KCNQ2 pot | KCNQ2 pot baseline
O=C(O)CCC(=O)N1CCN(c2cccc(Cl)c2)CC1 | 0.8 | 0.62
COc1cc(C2c3[nH]c4ccccc4c3C[C@H]3C(=O)N(CCO)CC(=O)N23)cc(OC)c1OC (some centres undefined) | 0.9 | -0.4
CC1CCCCC1NC(=O)CCNS(=O)(=O)c1ccc(Cl)cc1 (centres undefined) | 1.1 | -0.74
CCN1C(=O)CC(N2CCN(C(c3ccccc3)c3ccccc3)CC2)C1=O (centres undefined) | 0.05 | -0.09
Cc1ccc2[nH]c(=O)c(CN(Cc3cccnc3)Cc3nnnn3CCN3CCOCC3)cc2c1 | 0.18 | 0.09
Cc1ccc(CSc2[nH]c(=O)ncc2C)cc1 | 1.6 | -1.1

Molecules shown so far with four or more nitrogen atoms, in the order listed:
SMILES | KCNQ2 pot | KCNQ2 pot baseline
Cc1nnc(NC(=O)CC(CN(C)S(=O)(=O)c2ccccc2)c2ccccc2)s1 (centres undefined) | 0.39 | -1.1
O=c1[nH]c(=O)n(Cc2ccccc2)c2nc(-c3ccc(C(F)(F)F)cc3)n(CCO)c12 | 0.23 | -2.2
CC(C)(NC(=O)NC(CO)c1ccccc1)c1cccc(C(C)(C)NC(=O)NC(CO)c2ccccc2)c1 (centres undefined) | 1.5 | 0.1
Cc1sc2ncnc(NCC(c3ccco3)N(C)C)c2c1C (centres undefined) | 0.54 | -1.6
CCC(Sc1nncn1C)C(=O)Nc1nnc(-c2ccccc2Cl)s1 (centres undefined) | 1.1 | 0.17
Cc1cc(=O)[nH]c(SCc2nnnn2-c2ccc(Cl)cc2)n1 | 0.28 | -1.1
Nc1nc(-c2cccnc2)nn1C(=O)c1ccccc1Cl | 0.82 | -0.23
COCC(C)n1c(SCC(=O)NNC(=O)c2ccccc2)nc2ccccc2c1=O (centres undefined) | 0.52 | -1.8
COc1ccc(CCNC(=O)CSc2nnc3ccccn23)cc1 | 1.3 | 0.67
CN(CCc1cn[nH]c1)C(=O)CC1C(=O)NCCN1Cc1cccc(Oc2ccccc2)c1 (centres undefined) | 0.74 | -1.7
CCn1cc(Cl)c(C(=O)N2N=C(c3ccc4ccccc4c3)CC2c2ccccc2O)n1 (centres undefined) | 0.62 | 0.81
CN(Cc1c(C(=O)N/N=C/c2cc(F)ccc2F)nnn1-c1nonc1N)C1CCCCC1 | 2.5 | -0.07
Clc1cncc(Cl)c1NNc1c2ccccc2nc2ccccc12 | 1.4 | -0.15
CCc1nnc2n1N=C(c1ccc([N+](=O)[O-])cc1)CS2 | 0.13 | -0.75
O=C(Nc1nnc(-c2ccncc2)o1)c1cccc(N2C(=O)CCC2=O)c1 | 1.1 | -3.1
Cc1cc(C(F)(F)F)n(-c2nc(C(=O)NN)cs2)n1 | 0.89 | -2
Cc1cc(NC(=O)CSc2nc3ccc(Cl)cc3[nH]2)no1 | 0.17 | -1.2
CCc1ccc2nc(N=C(N)N)nc(C)c2c1 | 1.7 | 0.17
Cc1cc(C)c(-n2c(O)c(C=NCCN3CCOCC3)c(=O)[nH]c2=O)c(C)c1 | 0.12 | 0.68
COc1ccc(NC(=O)CSc2nnc(CNC(=O)COc3ccc(Cl)cc3)o2)c(OC)c1 | 1 | -0.01
O=C(Nc1ccc(N2CCOCC2)cc1)c1cnsn1 | 0.01 | -0.67
CC(/C=N/NC(=O)CSc1nc(C)cc(C)n1)=C\c1ccccc1 | 0.31 | 1.9
CC1CCN(C(=O)Cn2c(SCC(=O)Nc3nccs3)nc3ccccc32)CC1 | 0.35 | 0.87
Cc1ccc2[nH]c(=O)c(CN(Cc3cccnc3)Cc3nnnn3CCN3CCOCC3)cc2c1 | 0.18 | 0.09
